Assay outcomes as filed in PubChem.
VACV mCherry inh = qHTS for Stage-Specific Inhibitors of Vaccinia Orthopoxvirus: mCherry Reporter Primary qHTS | Vaccinia virus mCherry reporter infection, fluorescence; about a quarter of the inactives have no number | Potency, µM (doses to about 36.5 µM), for the others: top-dose activity change, negative = inhibition, hits mostly inhibitors | 310,000 tested, 0.63% active | AID 720579, 2013; active = well fitted inhibition curve with a large enough effect; inconclusive = small, poorly fitted or top-dose-only effect; inactive = no such curve, though single readings can be large or run the other way; tested in A549 cells; further: nearly all actives have a fitted effect of over 35% in size; inactives centre near -10
VACV Venus inh = qHTS for Stage-Specific Inhibitors of Vaccinia Orthopoxvirus: Venus Reporter Primary qHTS; Vaccinia virus Venus reporter expression, fluorescence; 330,000 tested, 0.46% active; Potency, µM (series often up to 36.5 µM), inactives show top-dose activity change, negative = inhibition, most hits filed as inhibitors; active means well fitted inhibition curve with a large enough effect; inconclusive means small, poorly fitted or top-dose-only effect; inactive means no such curve, though single readings can be large or run the other way; tested in A549 cells; further: nearly all actives have a fitted effect of over 30% in size; inactives centre near -10
Active calls of the source: *; i = inactive; ? = inconclusive; / = no result given; & = joins results of further samples; [ ] = remark or other dose. On the % scale 0 is the no-effect control and ±100 the full control effect; potency means the concentration at half of the fitted maximal effect.

SMILES	VACV mCherry inh	VACV Venus inh
COc1ccc(C(=O)N[C@H](C(=O)Nc2ccc(OC)nc2)C(C)C)cc1	/	-11.2%
CCCCC[C@H](O)CC(=O)CCc1ccc(O)c(OC)c1	-15.7%[60.7 µM]	-10.7%[60.7 µM]
O=C(c1cccc(C(=O)N2CCN(c3ccccc3F)CC2)c1)N1CCN(c2ccccc2F)CC1	/	0.8%
O=C1NC(=O)N(CCNc2ncc(C(F)(F)F)cc2Cl)C(=O)C1Cc1ccc(Cl)cc1 (centres undefined)	-16.6%	-18.9%
CCN(CC)CCNCC1C(=O)O[C@@H]2C[C@@]3(C)CCC[C@H](C)C3=C[C@H]12 (some centres undefined)	4.47µM*	10µM*
Cc1oc2cc(O)ccc2c(=O)c1-c1cnn(-c2ccccc2)c1	/	-24.4%
COCC(=O)N(C)C[C@H]1Oc2cc(C#Cc3cccnc3)ccc2S(=O)(=O)N([C@H](C)CO)C[C@H]1C	i	-12.9%
Cc1ccc2c(c1C)NC(C)CC2C (centres undefined)	-11.0%	2.7%
CC1(C)Cc2[nH]c(=S)c(C#N)cc2CO1	-4.9%	-2.6%
COc1cc(OC)c(/C=N/NC(=O)c2ccncc2)cc1Br	-4.7%	-8.2%
Cc1ccc(S(=O)(=O)NC(=NC(C)C(=O)O)c2ccccc2)cc1 (centres undefined)	-15.5%[1.46 µM]	-6.2%
Brc1ccc(C2C=Cc3ccccc32)cc1 (centres undefined)	35.4%[activator]	11.8%
COc1ccc(C(=O)c2c(N)c(-c3nc(-c4ccc5c(c4)OCO5)cs3)c3ccccn23)cc1	-25.6%	-19.5%
O=C(CN1C(=O)CSc2ccc(S(=O)(=O)N3CCCCC3)cc21)NCc1ccc(F)cc1Cl	-5.9%	-7.3%
NS(=O)(=O)c1ccc(CCNC(=O)c2ccc(Br)s2)cc1	-12.2%	-5.5%
O=C(COC(=O)c1ccc(Cl)c(S(=O)(=O)N2CCOCC2)c1)NCc1ccco1	i	-0.9%
Cc1ccccc1-c1nnc(CN2CCN(c3ccccn3)CC2)o1	-11.9%	-6.7%
Cc1ccc2oc(C(=O)Nc3ccc(S(=O)(=O)Nc4ncccn4)cc3)c(C)c2c1	-16.7%	-21.5%
COc1ccc(CC(=O)NO)cc1OC	-0.6%	-14.0%
O=C1CC(c2nc3ccccc3[nH]2)CN1Cc1ccccc1 (centres undefined)	-10.7%	1.4%
N#Cc1c(/N=C/c2ccc(Br)s2)sc2c1CCC2	-14.1%	-11.5%
CCn1c(SCC(=O)c2ccc(O)c(O)c2)nnc1-c1ccc(C)cc1	/	-22.3%
Clc1ccccc1C(c1nnnn1Cc1ccco1)N1CCN(Cc2ccco2)CC1 (centres undefined)	-5.4%	-25.4%
CC(=O)Nc1ccc(CN(C)c2c(C)nc3ccc(C(=O)NCCCn4ccnc4)cn23)cc1	53.4%[activator]	1.2%
Cc1ccc(CCNC(=O)C(C)n2nc(C)c3c(C)n(-c4ccc(C)cc4)nc3c2=O)cc1 (centres undefined)	?	-27.8%

Next section (4 carried over from the part before).
SMILES	VACV mCherry inh	VACV Venus inh
CCn1c(SCC(=O)c2ccc(O)c(O)c2)nnc1-c1ccc(C)cc1	/	-22.3%
Clc1ccccc1C(c1nnnn1Cc1ccco1)N1CCN(Cc2ccco2)CC1 (centres undefined)	-5.4%	-25.4%
CC(=O)Nc1ccc(CN(C)c2c(C)nc3ccc(C(=O)NCCCn4ccnc4)cn23)cc1	53.4%[activator]	1.2%
Cc1ccc(CCNC(=O)C(C)n2nc(C)c3c(C)n(-c4ccc(C)cc4)nc3c2=O)cc1 (centres undefined)	?	-27.8%
O=[N+]([O-])c1cc(C(F)(F)F)ccc1NC1CCN(Cc2ccccc2)C1 (centres undefined)	?	-13.0%
Cc1cc2c(=O)oc(-c3ccccc3Br)nc2s1	-20.3%	-12.3%
CC1=C(C(N)=O)C(c2cccc(C)c2)n2nc(-c3cccc(C)c3)nc2N1 (centres undefined)	1.9%	-9.1%
CC(=O)Nc1cccc(C(=O)OCC(=O)Nc2ccc(Cl)cn2)c1	i	-6.7%
Cn1c(=O)c2ccccc2n(CC(=O)NC2CCCCC2)c1=O	-16.0%	-4.7%
CC1(C(=O)O)CCN1C(=O)c1ccccc1F (centres undefined)	22.5%	-8.1%
Cc1cc2nc(-c3ccc(F)cc3)c(Cc3cccc(Cl)c3)n2c(C)c1Br	6.3%	-3.9%
CCc1cccc(NC(=O)Cn2c(=O)ccc3cc(S(=O)(=O)N4CCC(C)CC4)ccc32)c1	-1.8%	-11.2%
CCOc1ccc(NS(=O)(=O)c2ccc3[nH]cc(C(=O)NCCOC)c(=O)c3c2)cc1	-16.5%&-9.6%	-9.4%&-10.1%
COc1cccc(Nc2ccc(C(=O)O)cc2N)c1	-3.6%	1.6%
COc1cc(OC)c(NC(=O)Cc2c(C(=O)O)c(C)cn2C)cc1Cl	-10.0%	-12.8%
COc1ccccc1/C=C/CN1CCC(CO)(Cc2ccccc2)CC1	-9.6%	-8.1%
CCn1c(C2CCN(Cc3ccccc3)CC2)n[nH]c1=S	i	-12.1%
O=C(NC1CCCCC1)c1cc2cc(Br)ccc2o1	-11.5%	-10.0%
C[C@H](CO)N1C[C@H](C)[C@@H](CN(C)C(=O)Nc2ccccc2)Oc2ccc(NS(=O)(=O)c3ccc(F)cc3)cc2C1=O	-25.7%	-5.0%
Cc1ccc(CCNC(=O)CCCn2nc(C)c3c(C)n(-c4ccccc4)nc3c2=O)cc1	-23.7%	-18.4%
NC(=O)CC(NC(=O)Cc1ccc(Br)cc1)c1ccc(N2CCC(Cc3ccccc3)CC2)c([N+](=O)[O-])c1 (centres undefined)	?	11.2µM*
Cc1ncsc1CCC(=O)N1CCCC(C(=O)c2cccc(Cl)c2)C1 (centres undefined)	-8.0%	-15.7%
CC(C)(C)C(=O)Cn1c(=O)n(-c2ccc(Cl)c(Cl)c2)c(=O)c2c3c(sc21)CCCC3	-3.2%	1.8%
Cc1cccc(C)c1NC(=O)CSCc1cnn(-c2ccccc2)c1-n1cccc1	-10.9%	-15.4%
COC(=O)[C@@]1(C)[C@H]2C(=O)N(Cc3ccccc3)C(=O)[C@H]2[C@H]2CN=C(SCc3ccc(Cl)cc3)N21	?	1.2%
COC(=O)c1cc(NC(=O)CCc2c(C)nc3nc(C)nn3c2C)cc(C(=O)OC)c1	1.5%	5.0%
Cc1ccc(C)c(NC(=O)Cn2c(=O)n(-c3ccccc3C)c(=O)c3c2c2cc(C)ccc2n3C)c1	-3.2%	1.4%
COc1cc(N)c2ncccc2c1Cl	-10.8%	-5.9%
CCC(=O)N1COC[C@@H]1Cc1ccccc1	-9.7%	-1.9%

The last 2 entries of the part before come first, to join the parts:
SMILES	VACV mCherry inh	VACV Venus inh
COc1cc(N)c2ncccc2c1Cl	-10.8%	-5.9%
CCC(=O)N1COC[C@@H]1Cc1ccccc1	-9.7%	-1.9%
CCN1CCN(c2cc(C)c3cc(NC(=O)c4cc(Cl)ccc4OC)ccc3n2)CC1	-15.1%[7.34 µM]	-12.2%[7.34 µM]
CSc1cccc(NC(=O)CCn2c(=O)c3cccn3c3cccnc32)c1	-4.2%	-0.1%
Cc1c(Cl)cn2c(=O)cc(CN3CCN(c4ccccc4)CC3)nc2c1Cl	-1.2%	6.2%
COc1ccc(S(=O)(=O)NC(=O)C2(C)CCN2C(=O)Cc2ccccc2Cl)cc1OC (centres undefined)	-6.1%	1.0%
O=c1c(-c2ccc(F)cc2)coc2cc(O)ccc12	i	-2.7%
CC(=O)Nc1ccc2nc(NC(=O)c3cccs3)sc2c1	-5.7%	-6.4%
C/C(=N\NC(=O)Cc1ccc(Cl)cc1)c1ccccn1	5.01µM*	6.31µM*
COc1ccc(CNC(=O)Cn2nnc(-c3ccc(S(C)(=O)=O)cc3)n2)cc1	-8.5%[7.34 µM]	-6.1%[7.34 µM]
COc1ccc(S(=O)(=O)NCc2ccccn2)cc1NC(=O)c1ccccc1F	?	-20.9%
CN(C)S(=O)(=O)c1ccc(C(=O)N2CCN(S(=O)(=O)c3cccs3)CC2)cc1	-16.7%	-1.2%
O=C(Nc1ccc(F)c(Cl)c1)N1CC=C(c2c[nH]c3ccccc23)CC1	-8.4%	-4.0%
COc1ccc(NC(=O)Nc2ccc(N3CCCC3=O)cc2)cc1OC	i	-11.4%
COC(=O)c1cccc(NS(=O)(=O)c2ccc(OC)c(OC)c2)c1C	?	-20.4%
O=C(CSc1nc2c(c(=O)n1-c1ccc(Cl)cc1)SCC2)NCC1CCCO1 (centres undefined)	i	-7.4%
COc1ccccc1OCc1ccc(C(=O)Nc2ccc(Cl)cn2)o1	i	-9.0%
C#CCOCCOCCOCCNc1nc(N2CCN(C(=O)CCCCCCCCCCNC(=O)[C@H](CO)n3cc(CCCSC)nn3)CC2)nc(N2CCN(C(=O)CCCCCCCCCCNC(=O)[C@H](CCCCN)n3cc(CCO)nn3)CC2)n1	i	?
COC(=O)c1ccc(/C=N/Nc2nc(N3CCCCC3)nc(N3CCCCC3)n2)cc1	i	3.7%
COc1cc(-c2nnc(SCC(=O)N3CCCc4ccccc43)o2)cc(OC)c1OC	-4.2%	3.8%
CC(C)c1ccc(OCC(=O)N2CCN(CCc3ccncc3)CC2)cc1	0.8%	-2.5%
Cc1ccc(-n2c(CCc3ccccc3)n[nH]c2=S)cc1C	i	-9.5%
Cc1ccc(-c2nc3cnccn3c2Nc2ccccc2)o1	?	-10.8%
Cc1ccc(C(O)c2ncc(-c3ccccc3F)[nH]2)c(C)c1 (centres undefined)	-4.3%	-10.2%
O=C1NC(c2ccc(Br)cc2)Nc2sc3c(c21)CCC3 (centres undefined)	-13.4%	0.6%
CCOC(=O)N1CCc2c(sc3c2c(=O)n(CCc2ccccc2)c(=O)n3Cc2c(F)cccc2Cl)C1	-13.3%	-19.0%
Fc1ccc(CNCc2ccccc2Cl)cc1	-10.7%	-2.7%

Single records, as listed above. Order of values: VACV mCherry inh	VACV Venus inh
`COc1ccc(CNC(=O)Cn2nnc(-c3ccc(S(C)(=O)=O)cc3)n2)cc1` is entered as -8.5%[7.34 µM]	-6.1%[7.34 µM]
`COc1ccc(S(=O)(=O)NCc2ccccn2)cc1NC(=O)c1ccccc1F` is entered as ?	-20.9%
`COc1cc(-c2nnc(SCC(=O)N3CCCc4ccccc43)o2)cc(OC)c1OC` is entered as -4.2%	3.8%
`CCN1CCN(c2cc(C)c3cc(NC(=O)c4cc(Cl)ccc4OC)ccc3n2)CC1` is entered as -15.1%[7.34 µM]	-12.2%[7.34 µM]
`COC(=O)c1ccc(/C=N/Nc2nc(N3CCCCC3)nc(N3CCCCC3)n2)cc1` is entered as i	3.7%

Further structures.
SMILES	VACV mCherry inh	VACV Venus inh
CCCCn1nnnc1C(c1cc2ccccc2o1)N1CCN(c2cc(C)nc3ccccc23)CC1 (centres undefined)	-19.3%	-11.6%
COc1cccc(C(=O)CSc2nnc(-c3cc(OC)cc(OC)c3)o2)c1	-24.2%	6.4%
Cc1cc(C)n(C(=O)CSc2nnc(SCC(=O)n3nc(C)cc3C)s2)n1	/	-12.5%
CC(c1ccccc1)C1CC(=O)N(c2ccc(C(=O)O)cc2)C1=O (centres undefined)	-7.6%	3.1%
COc1ccc(Cl)cc1NC(=O)CSc1nnc(C2CC2)n1C	-6.5%	-14.6%
Cc1cccc(N2CCN(C(=O)Cn3ncc4c5ccccc5n(C)c4c3=O)CC2C)c1 (centres undefined)	-6.2%	0.6%
O=S1(=O)N[C@H](Cc2ccccc2)COc2cc(N3CCC[C@H]3CO)ccc21	8.8%	-5.9%
Cc1cccc(NC(=O)c2nc[nH]c2C(=O)N[C@@H](CC(C)C)C(=O)OCc2ccccc2)c1	i	-17.4%
COc1ccccc1CNS(=O)(=O)CCNCc1ccco1	i	-5.3%
Cc1cc(C)nc(NC(=O)CSc2nccc(C)n2)n1	i	-6.3%
CC(C)COc1ccc(S(=O)(=O)NNC(=O)c2cc3ccccc3o2)cc1	?	-19.7%
O=C(CSc1nc2[nH]ncc2c(=O)[nH]1)Nc1ccc(F)cc1	-13.5%	-16.5%

Compounds were not picked by outcome; any-hit rate near 0.87%.
